Sa growth inh = blocks Staphylococcus aureus growth. S. aureus RN4220 growth, OD600, 20 h, 42 °C; stronger effect = lower value. relative growth, % (no concentration beside the values). 170,000 tested, 0.53% active;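 active = growth at 42 °C up to 50% and 20 or more points under that at 30 °C, or under 10% at both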;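 also: 300 nL library stock went into each well; scaled to the means of positive and negative controls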
GIV-Gai inh = blocks GIV peptide binding to rat Galpha-i3; percent of control (FP), % (concentration not given with the values); AID 1224905; Galpha-i3/FITC-GIV peptide fluorescence polarization, 90 min; stronger effect = lower value; scaled: aluminum fluoride 0%, vehicle 100%; P08753; 210,000 tested, 0.42% active;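 active = replicate mean at 85% of control or lower, very high polarization wells dropped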;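 also: wells of about 15 µL received 100 nL stock; the first replicate is given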
Target sequence (P08753 whole entry, looked up): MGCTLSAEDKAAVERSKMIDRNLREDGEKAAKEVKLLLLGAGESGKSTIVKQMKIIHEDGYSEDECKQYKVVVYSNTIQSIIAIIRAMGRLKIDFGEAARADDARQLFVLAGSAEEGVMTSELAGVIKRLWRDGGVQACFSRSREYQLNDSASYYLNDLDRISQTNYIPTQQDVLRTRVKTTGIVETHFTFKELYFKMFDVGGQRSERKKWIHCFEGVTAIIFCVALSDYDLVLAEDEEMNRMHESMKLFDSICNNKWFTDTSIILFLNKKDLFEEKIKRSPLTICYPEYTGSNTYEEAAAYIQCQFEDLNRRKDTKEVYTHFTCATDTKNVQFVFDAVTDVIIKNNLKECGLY
HCMV UL50-53 inh = inhibitors of HCMV UL50-UL53 nuclear egress complex interaction. HTRF UL50-UL53 interaction, normalized percent inhibition. inhibition, % (no concentration beside the values). 190,000 tested, 0.15% active;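 active = both replicates at 50% or more, plus weaker picks with an unusually low signal ratio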;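 also: stock transfer was 100 nL into about 20 µL; 0% = negative control wells and 100% = wells with untagged competitor protein; inactives centre near -12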
Sa growth inh second temp = also measured in Sa growth inh; calls as there; relative growth, %; measured here: growth at 30 °C;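 optical density after 20 h as mean of two plates; 100% = untreated growth and lower means inhibition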
Numbers without * were called inactive; nt = not tested or not shown; & = joins results of further samples. This is a random part of the collection. About 0.85% of those tested had a hit in this group.

SMILES	Sa growth inh	Sa growth inh second temp	GIV-Gai inh	HCMV UL50-53 inh
COc1cc(C)ccc1OCCSc1nc2ccc(NC(=O)c3cccs3)cc2s1	145	70	96	-18
Cc1ccc(N2CCN(c3nccn4nc(-c5ccc(Cl)cc5)cc34)CC2)cc1	nt	nt	104	-10
CCOc1cc(CNCCSc2nnnn2C)ccc1OCc1ccccc1	nt	nt	99	-22
O=C1c2cccc3cccc(c23)C(=O)N1CCN1CCN(S(=O)(=O)c2cccs2)CC1	nt	nt	112	6
COc1cc(C)c(S(=O)(=O)N2CCc3cc4cccc(C)c4nc32)cc1C	nt	nt	102	-22
Cc1ccccc1NS(=O)(=O)c1ccc(-n2c(=O)n(C)n(C)c2=O)cc1	123	88	102	-7
CCC(C)NC(=O)CSc1nnc(-c2ccc(C)cc2)c(-c2ccc(C)cc2)n1 (stereo not given)	125	92	105	nt
Cn1c(=O)c2nc(-c3nnc4n3CCCCC4)c(N)nc2n(C)c1=O	89	95	107	-10
Cc1ccc(-n2nc(C(=O)N(C)c3ccc(F)cc3)c3c4ccccc4n(C)c3c2=O)cc1	nt	nt	101	-34
COc1cc2c(-c3ccccc3O)nc3c(c(C)nn3-c3ccccc3)c2cc1OC	101	81	106	-50
C#CC(/C=C/C)OC(=O)c1ccccc1C(=O)O (stereo not given)	94	82	112	-8
CC(C)OC(=O)c1cccc(C(=O)O)n1	89	80	105	-11
COc1ccc(-c2nc(Nc3ccc(C)c(F)c3)c3ccccc3n2)cc1	nt	nt	107	-26
Cc1ccc(NC(=O)C2CCN(c3ncnc4onc(C)c34)CC2)c(C)c1	nt	nt	108	2
O=C(CSc1nnc(-c2ccc3c(c2)OCO3)o1)N1CCc2ccccc2C1	nt	nt	106	-20

3 compounds from above, ordered by the number in GIV-Gai inh, largest number first:
structure	GIV-Gai inh
O=C1c2cccc3cccc(c23)C(=O)N1CCN1CCN(S(=O)(=O)c2cccs2)CC1	112
COc1ccc(-c2nc(Nc3ccc(C)c(F)c3)c3ccccc3n2)cc1	107
O=C(CSc1nnc(-c2ccc3c(c2)OCO3)o1)N1CCc2ccccc2C1	106

Next section:
SMILES	Sa growth inh	Sa growth inh second temp	GIV-Gai inh	HCMV UL50-53 inh
CC(C)N(C)C1CCN(S(=O)(=O)c2ccc(-c3ccc(=O)[nH]n3)s2)CC1	91	93	103	-132
COCCc1nn2c(=O)cc(COC(=O)C(c3ccccc3)c3ccccc3)nc2s1	97	84	107	nt
CCc1ccc(C(N)c2cccc(F)c2)cc1 (stereo not given)	82	90	nt	-16
COc1ccccc1N1CCN(C(=O)c2ccc3c(c2)CCCN3S(=O)(=O)c2ccccc2)CC1	nt	nt	107	-21
Cc1cc(C)n(-c2ncnc3sc4c(c23)CCC4)n1	88	90	nt	-20
C/C(=N\NC(=O)c1cccnc1)c1ccc(S(=O)(=O)NCc2ccco2)cc1	113	96	nt	-18
O=C(Cn1ncc2c(=O)oc3ccccc3c21)N1CCCCC1	99	92	94	0
CC(C)(C)OC(=O)N1CCC(c2cc(=O)n(-c3ccccc3)[nH]2)CC1	81	66	101	-12
CCN1C(=C(C#N)C#N)C=Cc2ccccc21	122	77	103	nt
Cc1sc(/N=C/c2ccccc2O)c(C#N)c1C	90	87	92	nt
COC(=O)c1ccc(NC(=O)CCc2c(C)nc3c(c(C)nn3C(C)(C)C)c2C)cc1	94	97	108	4
COCCN(C(=O)c1ccccc1)c1nnc(-c2ccncc2)s1	99	83	102	-21
O=C(CCS(=O)(=O)c1ccc(Br)s1)NC1CCCC1	94	86	106	nt
Cc1cc(C(=O)N(C2CCCCC2)C2CCCCC2)no1	100	80	103	nt
CCOC(=O)c1ccc(N2N=C(C(F)(F)F)CC2=O)cc1	49	26	100	-10
Cc1nc(N(C)C)cc(N2CCN(C(=O)c3ccccc3C)CC2)n1	nt	nt	100	-30
ON=C(Cc1ccccc1)Cc1ccccc1	88	85	100	-26
CC(C)c1noc(-c2ccccc2OCC(=O)Nc2nnc(C(C)C)s2)n1	nt	nt	94	-22
CCOc1ccc(NS(=O)(=O)c2ccc3[nH]c4c(c3c2)CCCCC4)cc1	114	103	103	nt
Cc1ccc(S(=O)(=O)NCCc2sc3nc(-c4ccccc4)nn3c2C)cc1C	113	92	99&99	nt
Cc1ccc(S(=O)(=O)c2nnn3c2nc(NCc2ccccc2Cl)c2sccc23)cc1	109	85	105	nt
Cc1ccc(CCNC(=O)CCn2nc(-c3ccc(C)cc3)ccc2=O)cc1	109	99	100	nt
CCN(CC)c1ccc(N)c(C)c1	11	7	41*	-64
Cc1ccc(NC(=O)CCCn2c(=O)c3cccn3c3cccnc32)cc1C	101	97	100	nt
CC(C)C(=O)N(Cc1ccccn1)c1nc2ccccc2s1	100	75	103	-4
CCOC(=O)Cc1nnc(NC(=O)C(CC)Sc2nc(C)cc(C)n2)s1 (stereo not given)	83	93	108	8
COc1ccc(C2CC(c3c(-c4ccccc4)c4cc(Br)ccc4[nH]c3=O)=NN2C(=O)CCC(=O)O)cc1 (stereo not given)	nt	nt	107	3
CCc1ccc(-n2[nH]nnc2=S)cc1	84	82	106	-16
CC(=O)Nc1nnc(SCc2ccccc2)s1	100	98	nt	-7
Cc1ccccc1NC(=O)c1cnn2ccccc12	105	88	100	nt
CC(=O)N[C@H]1[C@H](Oc2nc3cc(C)ccc3o2)O[C@H](CO)[C@@H](O)[C@@H]1O	106	91	100	nt
Cc1cccc(C(=O)NCC(=O)N2CCN(S(=O)(=O)/C=C/c3ccccc3)CC2)c1	109	89	nt	4
CCOC(=O)C1=C(CC)Nc2ccccc2N=C1NC(=O)Nc1ccccc1OC	123	93	nt	-17
O=C(CSc1nnnn1-c1ccccc1)c1ccccc1	103	81	104	nt
COc1ccc(-c2nn3c(NCC4CCCO4)cc(C)nc3c2C)cc1OC (stereo not given)	nt	nt	111	-1
COc1cc(NS(=O)(=O)c2cc3c(cc2C)N(C)CCO3)cc(OC)c1OC	89	91	98	nt
N#Cc1nc(Cc2ccccc2)oc1N1CCC(Cc2ccccc2)CC1	139	102	107	-5
N#Cc1cccc(NC(=O)C23CC4CC(CC(Cl)(C4)C2)C3)c1	115	79	nt	-32
NS(=O)(=O)c1ccc(CCNC(=O)Cn2c(-c3cccs3)cc3ccccc32)cc1	119	99	112	nt
CCOC(=O)c1ccc(NC(=O)n2ncc3cc(Cl)ccc32)cc1	105	90	109	0
Cc1noc(C)c1CSCC(=O)Nc1c2ccccc2n2c(C)nc3ccccc3c12	85	93	nt	-13
Cn1c(=NC(=O)CSCC(=O)N2CCN(c3ccccc3)CC2)sc2ccccc21	109	102	104	23
N#CCCS(=O)(=O)c1ccc(Cl)cc1	104	90	97	-5
O=C(c1ccc2nc[nH]c2c1)N1CCN(C/C=C/c2ccccc2)CC1	99	96	nt	-21
CCCCN(CC)c1cc(C(=O)O)c2cc(NC(=O)c3cccc(Cl)c3)ccc2n1	nt	nt	121	-62
CCS(=O)(=O)CCSc1nc(C)cc(C)n1	105	110	98	nt
CCOc1ccc(Nc2nc(N)c(C(=O)c3ccccc3Cl)s2)cc1	91	86	110	nt
COc1cc(NC(=O)c2cnn3c2NC(c2ccc(Br)cc2)CC3C(F)(F)F)cc(OC)c1OC (stereo not given)	nt	nt	90	-21
O=C(NCCc1nc2cccnc2n1Cc1ccccc1)Nc1ccc(Cl)cc1	nt	nt	119	-13
O=S(=O)(NCC1CCCO1)c1ccc2ccccc2c1 (stereo not given)	129	99	101	-24
CC(C)c1cc(C(C)C)c(S(=O)(=O)n2ccnc2)c(C(C)C)c1	90	90	99	-30
C=CCn1c(=S)[nH]c2ccccc2c1=O	89&84	93&106	106&92	-1
CCn1c(CCc2ccc(NC(=O)c3ccc4c(c3)OCO4)cc2)nc2ccccc21	nt	nt	106	-26
CC(C)OC(=O)CSc1nc2cc3c(cc2cc1C#N)OCO3	93	84	104	-14
COc1ccc2cc3cc(C(=O)NCCCN4CCCCCC4)sc3nc2c1	82	94	107	nt
CCn1c(=O)sc2cc(NC(=O)C3CC(=O)N(c4ccccc4)C3)ccc21 (stereo not given)	nt	nt	101	15
CC(NC(=O)CSc1ncccn1)c1ccccc1 (stereo not given)	102	81	100	-12
O=C(c1ccc2c(c1)N(CC(=O)N1CCCc3ccccc31)C(=O)C1CCCCN21)N1CCCC1 (stereo not given)	nt	nt	103	-23
O=S(=O)(c1cccs1)n1ccc(-c2ccc3c(c2)CCO3)n1	102	80	98	-6
CCC(C)n1c(NC(=O)c2ccccc2)c(C#N)c2nc3ccccc3nc21 (stereo not given)	24	19	nt	72*
(listing goes on)
SMILES	Sa growth inh	Sa growth inh second temp	GIV-Gai inh	HCMV UL50-53 inh
N#CC(C#N)=C1C(C#N)=C(N)OC1c1ccccc1 (stereo not given)	99	86	nt	-6
NNC(=O)Cc1cc(Br)sc1Br	105	97	97	-12
Cc1nc(-c2ccc(Cl)cc2)sc1-c1ccnc(N)n1	104	73	100	-22
C=CCn1c(SCC(=O)Nc2ccc3[nH]c(=O)[nH]c3c2)nnc1-c1ccccc1F	106	94	nt	-2
O=S(=O)(NCCC1CC1(Cl)Cl)c1ccccc1 (stereo not given)	76	82	102	-18
O=C(/C=C/c1ccc(Cl)cc1Cl)NCC1CCCO1 (stereo not given)	87	83	nt	-53
O=C(Oc1cccc(F)c1F)c1ccc2nonc2c1	101	83	101	-3
Cc1cccc(CSc2ccc3nnc(CCNS(=O)(=O)c4ccccc4)n3n2)c1	98	83	108	nt
CCOC(=O)c1c(NC(=O)c2csnn2)sc2c1CCCC2	nt	nt	101	-17
COc1ccc(-c2noc(CN(C)C(=O)c3ccccc3)n2)cc1	93	87	99	-7
O=C1CCCN1CN(C(=O)c1ccccc1)c1cccc(Cl)c1	88	85	101	-40
Cc1cccc(C)c1NC(=O)Cn1c(=O)n(Cc2ccc(C(=O)NCc3ccco3)cc2)c(=O)c2sccc21	93	86	100	-8
CCOC(=O)C1C(=O)OC(C)(C)C1C(=O)OCC (stereo not given)	102	98	102	-10
Cn1c(=O)c(=O)[nH]c2cc(-c3noc(C4(c5ccccc5)CC4)n3)ccc21	nt	nt	105	0
O=C1OC(C(=O)Nc2cc(C(F)(F)F)ccc2Cl)Cc2ccccc21 (stereo not given)	99	94	102	14
CCOc1ccc(NC(=O)C2Cc3ccccc3N2C(=O)c2ccccc2)cc1 (stereo not given)	149	75	98	nt
CCC1CCCCN1C(=S)NC1CCCCC1 (stereo not given)	122	98	nt	4
CC(C)c1nc(CNC(=O)c2ccc(F)cc2)no1	nt	nt	105	-6
NC(=O)c1ccc(-c2ncc3c(n2)-c2cc(F)ccc2OC3)cc1	107	50	105	-8
COc1cc(C2NC(=O)NC3=C2C(=O)N(Cc2ccc(F)cc2)C3)cc(OC)c1OC (stereo not given)	81	96	nt	-25
c1ccc(-n2c3c(c4ccccc42)CCC3)cc1	94	102	nt	-9
COc1cc(/C=N/NC(=O)CC2(C)SCCS2)ccc1O	94	95	nt	-21
O=C(/C=C(\O)c1ccccc1)C(=O)Nc1ccccn1	48	1	102	-32
Cc1nc2ccccc2c(=O)n1Cc1noc(CN2C(=O)COc3ccc(Cl)cc32)n1	nt	nt	102	-18
O=C(CCS(=O)(=O)c1cc(Br)cc2c1N(C(=O)C1CC1)CC2)Nc1ccc(F)cc1	103	108	101	9
Cc1ccc2c(c1)c(C1=NC(=S)NC1=O)c(O)n2C	88	86	104	-32
CC(=O)Nc1ccccc1-c1nnc(SC(C)C(=O)Nc2ccccc2Cl)[nH]c1=O (stereo not given)	nt	nt	97	-25
CCCNC(=O)c1ccc(CS(=O)Cc2cccc(Cl)c2)o1 (stereo not given)	93	88	105	-14
COc1ccc2cc(CCNC(=O)c3ccccc3)c(=O)[nH]c2c1	91	79	98	nt
N#Cc1c(SCC(=O)NCCc2ccccc2)sc2c(=O)[nH]c(=O)[nH]c12	91	80	102	nt

An excerpt from above in order of length of the SMILES, rising:
SMILES	Sa growth inh	Sa growth inh second temp	GIV-Gai inh	HCMV UL50-53 inh
CCC1CCCCN1C(=S)NC1CCCCC1 (stereo not given)	122	98	nt	4
c1ccc(-n2c3c(c4ccccc42)CCC3)cc1	94	102	nt	-9
CC(C)c1nc(CNC(=O)c2ccc(F)cc2)no1	nt	nt	105	-6
O=C(/C=C(\O)c1ccccc1)C(=O)Nc1ccccn1	48	1	102	-32
CCCNC(=O)c1ccc(CS(=O)Cc2cccc(Cl)c2)o1 (stereo not given)	93	88	105	-14
COc1ccc2cc(CCNC(=O)c3ccccc3)c(=O)[nH]c2c1	91	79	98	nt
COc1cc(C2NC(=O)NC3=C2C(=O)N(Cc2ccc(F)cc2)C3)cc(OC)c1OC (stereo not given)	81	96	nt	-25

Further compounds.
SMILES	Sa growth inh	Sa growth inh second temp	GIV-Gai inh	HCMV UL50-53 inh
Cc1ccc2c(c1)sc1ncc(S(=O)(=O)c3ccc(F)c(Cl)c3)c(=O)n12	92	88	105	nt
Cc1nn(-c2ccccc2)c2sc(C(N)=O)cc12	118	76	nt	6
c1ccc(-c2csc3ncnc(N4CCC(N5CCCCCC5)CC4)c23)cc1	nt	nt	101	-2
Cc1ccc(NC(=O)CC(NCCN2CCOCC2)C(=O)O)cc1Cl (stereo not given)	91	83	101	nt
O=C(O)c1ccccc1NCCc1ccc(F)cc1	147	75	nt	-20
Cc1cc(C)n2c(Br)c(CN3CC(C)CC(C)C3)nc2n1 (stereo not given)	114	96	nt	4
Cc1oc2c(c1C(=O)Nc1ccccc1Br)C1=NCCN1C=N2	94	93	105	nt

High-throughput results from PubChem BioAssay.
